AF4-AF9 inh: blocks AF4 peptide binding to human AF9 | P42568 | AlphaScreen, biotin-AF4 peptide binding to FLAG-AF9 | inhibition, % at 10 µM | actives 0.47% (n = 350,000) | AID 651704;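 active means every replicate reaching a set inhibition limit, whatever the replicate mean, cut at about 25% in these data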;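 further: 0% = plate neutral control median and 100% = total signal loss; the record names both 10 and 1 µM as test concentration; the first replicate is given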
Target sequence (P42568 whole entry, looked up): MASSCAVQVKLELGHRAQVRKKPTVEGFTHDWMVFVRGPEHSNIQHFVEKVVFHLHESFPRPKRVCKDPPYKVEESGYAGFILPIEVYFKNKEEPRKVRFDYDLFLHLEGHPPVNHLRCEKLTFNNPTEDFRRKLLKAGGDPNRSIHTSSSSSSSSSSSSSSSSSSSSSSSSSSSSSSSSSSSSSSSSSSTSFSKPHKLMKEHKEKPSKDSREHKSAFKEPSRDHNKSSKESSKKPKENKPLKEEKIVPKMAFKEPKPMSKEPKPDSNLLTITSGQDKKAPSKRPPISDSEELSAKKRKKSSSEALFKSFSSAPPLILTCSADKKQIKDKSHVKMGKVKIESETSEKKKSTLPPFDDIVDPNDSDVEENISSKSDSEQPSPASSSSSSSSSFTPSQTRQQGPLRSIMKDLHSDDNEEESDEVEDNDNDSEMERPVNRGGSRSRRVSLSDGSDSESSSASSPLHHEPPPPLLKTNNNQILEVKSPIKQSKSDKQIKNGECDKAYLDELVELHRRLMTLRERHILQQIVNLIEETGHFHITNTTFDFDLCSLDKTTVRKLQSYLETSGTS
E coli growth: E. coli growth inhibition | Escherichia coli growth, OD600, 23 h; hits give low values | OD600 absorbance (no concentration beside the values) | actives 0.21% (n = 330,000);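 active means OD600 absorbance below the run mean of sample wells minus 3.6 SD, in any replicate, cut at about 0.56 in these data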;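 further: stock transfer was 300 nL into about 60 µL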
FGF22 binding: FGF22 (human) thermal shift binding; Q9HCT0; recombinant FGF22 thermal shift, SYPRO orange fluorescence; percent of sucrose octasulfate shift, DMSO zero; calls only at 9.99 µM; actives 1.5% (n = 340,000); AID 651658;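 active means melting point raised past a set limit in the mean and every replicate; three in four hits are not shown here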
Target sequence (Q9HCT0 whole entry, looked up): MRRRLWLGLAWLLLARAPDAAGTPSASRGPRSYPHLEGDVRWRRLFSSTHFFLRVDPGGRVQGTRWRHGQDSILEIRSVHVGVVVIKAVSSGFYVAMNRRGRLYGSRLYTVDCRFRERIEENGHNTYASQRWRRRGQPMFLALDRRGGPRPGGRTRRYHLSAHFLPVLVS
T cruzi repl: blocks replication of Trypanosoma cruzi; inhibition, % (concentration not given with the values); T. cruzi beta-gal in NIH3T3, luminescence, 90 h; actives 1.4% (n = 300,000);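 active means mean inhibition across valid replicates above about 55%, limit read from the data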;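 further: signal also drops with host cell toxicity which is not excluded here; 0% = plate median of DMSO wells and 100% = zero luminescence signal; higher percent means less beta-gal luminescence so fewer parasites; stock transfer was 50 nL into about 50 µL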
rRNA inh HTS: selective bacterial rRNA inhibition in E. coli. E. coli WT GFP vs humanized-ribosome RFP mutants, fluorescence, 24 h; hits give low values; DMSO median 0, no signal -100. GFP signal change (wild-type ribosome), % (concentration not given with the values). actives 1.6% (n = 350,000). AID 720706;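 active means significant combined selectivity score with lowered wild-type GFP, culture density cut under 30%, mutant RFP and density less affected; inactive means any of these conditions unmet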; further: one replicate is shown; some compounds called inactive have numbers as strong as hits
Beta cell apopt: blocks beta cell apoptosis. INS-1E cytokine-induced death, ATP luminescence, 48 h; percent of positive-control rescue, neutral wells zero. protection from apoptosis, % (test concentration not listed). actives 0.8% (n = 300,000). AID 435005;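 active means all replicates at 75% or more, or half of them and the mean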;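 further: 0% = cytokine-treated negative control wells and 100% = positive control rescue; higher means more ATP so stronger rescue from cytokine killing; wells of about 40 µL received 100 nL stock; the first replicate is given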
Bfl-1 A1 inh: inhibitors of the anti-apoptotic protein A1, read as caspase activation | MEF A1-2A-BIM cells, Caspase-Glo 3/7 luminescence, 3 h; percent of clofoctol response, vehicle zero | caspase activation, % (no concentration beside the values) | actives 0.066% (n = 330,000) | AID 2462;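 active means over half of replicate activation scores above 10%, or exactly half above 10 with the replicate mean above 10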;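 further: wells of about 30 µL received 50 nL stock; many hits fall short of the cut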
UCH37 inh: blocks the human deubiquitinase UCH37; Q9Y5K5; purified proteasome/UCH37, Ub-AMC cleavage fluorescence; inhibition, % (concentration not given with the values); actives 0.33% (n = 330,000);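 active means mean of two replicates above 20%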;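 further: 0% = compound-free wells with enzyme and 100% = wells lacking proteasome; stock transfer was 100 nL into about 20 µL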
Target sequence (Q9Y5K5 whole entry, looked up): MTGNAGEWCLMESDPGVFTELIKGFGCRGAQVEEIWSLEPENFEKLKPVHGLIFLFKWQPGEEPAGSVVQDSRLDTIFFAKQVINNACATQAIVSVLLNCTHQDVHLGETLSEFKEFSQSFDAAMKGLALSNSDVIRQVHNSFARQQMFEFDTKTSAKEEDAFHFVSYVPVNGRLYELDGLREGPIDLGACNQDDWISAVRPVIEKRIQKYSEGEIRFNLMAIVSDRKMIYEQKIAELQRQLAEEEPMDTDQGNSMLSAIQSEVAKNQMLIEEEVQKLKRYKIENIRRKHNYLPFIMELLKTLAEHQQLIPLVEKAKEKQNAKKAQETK
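System: Proteasome-associated human UCH37 deubiquitinase; Input: 0.15 nM proteasome in added enzyme buffer; Also added: Ub-AMC substrate from 1 µM stock; Incubation: 30 min compound-proteasome preincubation then 25 min substrate reaction, room temperature; Detection: fluorescence, ex 355 nm, em 460 nm; Read-out: % inhibition of Ub-AMC cleavage fluorescence; Benchmarks: no-proteasome and no-compound wells.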
rRNA inh HTS OD600: recorded beside rRNA inh HTS, whose call it bears; OD600 change, %; measured here: OD600 growth;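 optical density of the mix in the first replicate; 0 = DMSO median and -100 = no signal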
rRNA inh HTS RFP: also measured in rRNA inh HTS; calls as there; RFP signal change, %; measured here: RFP humanized mutant strains;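 first replicate; 0 = DMSO median and -100 = no signal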
The depositor's hits bear a star; i = inactive; / = not tested or not shown. A portion of the library (hit frequency here may not be typical).

compound	AF4-AF9 inh	E coli growth	FGF22 binding	T cruzi repl	rRNA inh HTS	rRNA inh HTS OD600	rRNA inh HTS RFP	Beta cell apopt	Bfl-1 A1 inh	UCH37 inh
CC(C)OC(=O)c1ccc(COc2ccc3ccc(=O)oc3c2)o1	-2.0	0.637	i	-1.7	-0.7	8.2	0.3	0.6	0.0	-21.6
CC(C)(C)CNC(=O)c1ccc2c(c1)S(=O)(=O)c1cc(Cl)ccc1C2=O	/	0.667	i	/	8.8	21.6	1.0	2.6	-0.2	-1.1
CCNc1nc(NCC)n2c(SCC(=O)Nc3ccc(OC(F)F)cc3)nnc2n1	-0.7	0.708	i	1.8	4.9	14.6	-2.1	/	/	0.9
Cc1ccc(OCC(=O)OCCN2C(=O)c3ccccc3C2=O)cc1C	-4.2	/	i	-13.9	-7.7	-4.1	-2.7	-6.1	0.7	/
Cc1ccc(NCc2nnc(SCC(=O)O)n2-c2ccc(C)cc2)cc1	-2.8	0.667	i	-1.1	4.8	-0.1	1.0	-8.1	0.0	3.1
Cc1ccc(Oc2ccc(C(=O)NCc3ccncc3)cc2)cc1	-11.6	0.666	i	-27.4	-26.6	-57.7	6.5	/	/	6.0
N#Cc1cccc2cnccc12	/	0.722	/	2.4	/	/	/	-4.0	1.5	-0.5
COc1ccccc1-c1cc(C(F)(F)F)n2ncc(C(=O)N3CCc4ccccc4C3)c2n1	-1.8	0.726	i	18.8	-4.4	-4.0	-2.2	-2.9	1.0	-33.2
COc1ccc(CCN2C(=O)CSC2c2ccc(F)cc2)cc1 (centres undefined)	0.4	0.681	i	3.1	-6.4	-13.9	2.3	-6.8	1.0	0.6
CCc1ccccc1N(CC(=O)NCCSCc1ccco1)S(C)(=O)=O	2.3	0.716	i	-0.4	6.7	3.1	1.7	1.5	-0.1	1.4
CC1(C)Oc2ccc(NC(=O)c3ccco3)cc2O1	/	0.69	/	-8.2	4.6	1.9	-2.0	5.8	-4.4	2.6
Cc1ccc(CNC(=O)C2CCN(S(=O)(=O)c3cccnc3)CC2)cc1	-0.4	0.718	i	0.2	5.7	11.2	0.6	1.1	-1.4	4.3
CCCNC(=O)NC(=O)COC(=O)c1cccc(NS(=O)(=O)c2ccc(F)c(F)c2)c1	-5.1	0.626	i	3.8	-12.7	-18.4	5.7	-7.5	-0.7	-1.1
Cc1cc(OC(C)C(=O)NCCCN2CCOCC2)ccc1Cl (centres undefined)	-1.2	0.723	i	-9.4	14.7	7.2	-2.2	-6.6	-0.4	2.6
O=C(OCn1nnc2ccccc2c1=O)C1CCCCC1	/	0.75	/	/	/	/	/	-4.1	0.3	-1.2
CCN(CC)c1ccc(S(=O)(=O)N(CC)CC)cc1NC(=O)c1cccnc1	-1.3	0.707	i	24.6	-21.2	-17.6	-0.4	-4.2	-0.2	1.5
CCOC(=O)N1CCC(=NNC(=O)COc2ccc(OC)cc2)CC1	/	0.711	/	-12.0	/	/	/	3.5	0.4	2.6
COc1cc(=O)n2c(-c3ccccc3)csc2n1	/	0.691	/	6.6	/	/	/	-9.5	0.5	1.9
CCCCNC(=O)C1c2ccccc2Oc2ccccc21	0.2	0.622	i	-16.9	20.9	15.8	2.1	-5.9	0.4	1.1
CNC(=O)c1sc(NCc2ccccc2OC)nc1C	-0.4	0.687	i	10.5	3.4	1.8	-3.6	/	/	3.2
Cc1cc(-n2cccn2)ccc1CN1CCN(CC(C)C)C(CCO)C1 (centres undefined)	-0.3	0.685	i	18.2	3.8	-2.2	-2.8	-3.3	0.2	1.7
N#CCCN1CCN(C(=S)c2ccc(-c3cccc(Cl)c3)o2)CC1	/	0.729	/	28.8	/	/	/	-0.2	0.1	7.9
COc1ccc(/C=C/C(=O)OCC(=O)NC2CCCC(C)C2C)cc1S(=O)(=O)N1CCOCC1 (centres undefined)	0.1	0.724	i	3.2	23.5	16.8	0.9	-1.7	-1.0	3.3
COc1ccc(OC)c(/C=N\Nc2nccs2)c1	2.5	/	i	4.3	-0.4	-8.0	-2.5	/	-0.3	/
COc1ccccc1NC(=O)Cc1noc(CSc2n[nH]c(N)n2)n1	-2.1	0.655	i	-2.6	10.6	10.1	3.5	-16.8	0.0	-1.0
Fc1ccc(N2CCN(c3cnc4ccccc4n3)CC2)cc1	0.3	0.635	i	-8.0	0.5	2.0	2.0	/	-2.4	-5.0
O=C(CCC(=O)N1CCOc2ccccc21)NCCCN1CCCCC1	-2.4	0.654	i	-7.7	-0.3	3.9	0.1	-6.0	0.1	-0.7
Cn1c(=O)c2c(SCC(=O)NCc3ccco3)nc(CC(C)(C)C)nc2n(C)c1=O	7.6	0.787	i	13.2	-4.7	-0.4	0.5	2.0	/	2.7
CCN(CC)S(=O)(=O)c1cccc(-c2cn3cccnc3n2)c1	9.5	0.673	i	7.5	4.7	-3.1	0.0	1.4	0.1	i
COc1cccc(-c2ccnc3[nH]n(-c4ccccc4)c(=O)c23)c1	3.0	0.717	i	11.4	2.5	17.5	11.2	-3.3	-1.4	1.6

(cont.)
compound	AF4-AF9 inh	E coli growth	FGF22 binding	T cruzi repl	rRNA inh HTS	rRNA inh HTS OD600	rRNA inh HTS RFP	Beta cell apopt	Bfl-1 A1 inh	UCH37 inh
Cc1cc(-c2ccccc2)c(C#N)c(N)n1	/	0.719	/	-12.1	/	/	/	4.3	-0.3	-27.8
CC(=O)c1cccc(NC(=O)Nc2cnn(Cc3ccc(F)cc3)c2)c1	2.4	0.649	i	/	-22.2*	-2.8*	7.3*	/	/	7.0
N/C(=N\c1nc2ccccc2o1)NC(=O)c1ccccc1Br	-1.4	/	i	12.8	10.4	9.2	0.6	2.2	-1.0	/
Cc1ccc2c(CC(=O)NCc3ccco3)coc2c1C	/	0.745	/	5.1	/	/	/	6.8	0.1	4.3
O=C(NCCCN1CCCC1=O)c1ccccc1NS(=O)(=O)c1ccc(Br)cc1	/	0.68	/	8.5	/	/	/	-0.6	-0.1	0.1
Cc1ccc(Nc2nc(CSc3nnc(-c4cccs4)o3)cs2)cc1	/	0.778	/	34.4	/	/	/	-0.9	1.4	2.4
COC(=O)\C(C(C)=O)=C(/C=C/C=C/N(C)C)N(C)C	/	0.743	/	-3.6	/	/	/	-0.5	-0.7	6.1
CCc1ccc(OC(=O)CN2C(=O)c3ccccc3C2=O)cc1	0.9	0.669	i	-8.3	-3.0	-1.1	-1.9	/	-0.4	0.3
CC(C)=CCN1CCN(Cc2ccc(Oc3ncccn3)cc2)CC1CCO (centres undefined)	-1.5	0.706	i	14.4	13.2	9.5	-1.1	-7.3	1.2	0.0
CCOc1ccccc1C(=O)N1c2ccccc2Sc2ccccc21	/	0.73	/	19.2	/	/	/	0.0	-1.2	1.8
Cc1c(Cl)cccc1NC(=O)CNc1ccccc1F	/	0.644	/	-2.6	/	/	/	-11.7	0.5	3.3
COc1cccc(-c2nn3c(-c4cccc(C)c4)nnc3s2)c1	/	0.716	/	33.8	/	/	/	0.0	-0.2	-0.9
O=C(c1ccco1)N1CCC(c2ccccc2)C1 (centres undefined)	/	0.644	/	-3.1	/	/	/	-0.7	-0.1	2.7
COC(=O)c1ccc(/C=N/n2cnnc2)cc1	-1.0	/	i	-25.7	16.1	0.6	-0.3	-3.6	-0.1	/
Cn1c(SCC(=O)NCc2ccco2)nnc1-c1cccs1	/	0.727	/	-10.8	/	/	/	-6.2	0.1	1.9
CCCC(=O)Nc1ccc2oc(-c3cccnc3)nc2c1	/	0.713	/	3.7	/	/	/	9.5	-1.0	-135.7
Cc1cccc(C(=O)OCC(=O)N2CCN(C(=O)c3ccco3)CC2)c1O	-1.6	0.69	i	/	2.9	-5.7	0.1	-4.7	0.0	2.4
Cc1ccc(NC(=O)CNC(=O)c2ccc3c(c2)OCO3)nc1	-2.7	0.689	i	7.4	11.0	10.0	0.9	-2.3	0.5	-0.5
COc1ccc(OC)c(C(c2nnnn2Cc2ccccc2)N2CCN(C)CC2)c1 (centres undefined)	/	0.743	/	-3.9	/	/	/	2.3	-0.3	2.2
CCC1CCCCN1CCCNC(=O)c1ccc2c(c1)c(C)c(C)n2C (centres undefined)	19.8	0.707	i	23.1	5.0	5.7	0.6	-1.4	0.0	2.1
COc1ccc(CNC(=O)c2cc(-c3ccc(OC)c(OC)c3)on2)cc1	/	0.686	/	16.5	/	/	/	-3.6	1.0	3.4
CCOC(=O)c1c(NC(=O)COC(=O)Cn2cnc3c2c(=O)n(C)c(=O)n3C)sc(C)c1CC	-1.5	0.669	i	-2.4	-7.6	1.0	-3.2	1.3	0.6	1.5
O=S(=O)(Nc1ccncc1)c1cc(Cl)c(Cl)cc1Cl	-0.7	0.66	i	-6.8	11.9	8.9	0.5	-1.8	-0.2	0.4
Cc1cccc(NC(=S)N2CCC(N(C)CC3CCCO3)CC2)c1 (centres undefined)	2.1	0.672	i	17.4	12.8	4.0	6.7	-2.6	0.5	0.7
Cc1cc(NS(=O)(=O)c2ccc(NC(=O)/C=C/c3ccc(Br)cc3)cc2)no1	-0.7	0.685	i	6.4	-1.9	8.1	0.9	0.3	-0.2	7.0
COc1ccc(S(=O)(=O)Nc2nccs2)cc1OC	-0.6	0.72	i	-11.3	5.2	-1.5	-1.9	/	0.3	1.1
COc1cc(/C=N/n2c(-c3n[nH]c4c3CCC4)n[nH]c2=S)cc(OC)c1O	-9.1	/	i	-17.1	-0.7	-9.3	-5.6	2.7	0.3	/
CC(C)c1ccc(NC2CCCN(C(=O)c3ccco3)C2)cc1 (centres undefined)	8.4	0.742	i	-0.7	-33.6	-28.2	-8.4	7.5	0.0	2.9
Cc1[nH]c2c(Br)cccc2c1[C@H]1[C@@H](CC#N)C1(C)C	/	0.696	/	15.0	/	/	/	3.4	-1.1	2.0
Cc1ccccc1NS(=O)(=O)c1ccc(C(=O)NCC(c2ccco2)N2CCCCC2)cc1 (centres undefined)	3.1	0.634	i	1.3	0.6	-2.5	4.7	5.9	-1.2	2.8

New compounds follow.
compound	AF4-AF9 inh	E coli growth	FGF22 binding	T cruzi repl	rRNA inh HTS	rRNA inh HTS OD600	rRNA inh HTS RFP	Beta cell apopt	Bfl-1 A1 inh	UCH37 inh
CC1CCCCC1NC(=O)CNC(=O)c1cccs1 (centres undefined)	0.4	0.641	i	-2.0	0.8	5.2	1.2	-0.9	0.4	3.7
COc1ccc(S(=O)(=O)N2CCCCC2)cc1NC(=O)c1c(F)cccc1Cl	-0.2	0.664	i	/	-11.1	2.3	-0.6	/	/	0.8
COc1ccc(C(C(=O)NC2CCCCC2)N(C(=O)Cc2c[nH]c3ccccc23)c2ccccc2C)cc1OC (centres undefined)	1.8	0.729	i	40.9	19.8	4.4	-0.7	1.1	-0.2	4.5
CCCCC[C@@H](/C=C/C1C(=O)C=C[C@H]1C/C=C\CCCC(=O)OC)OC(C)=O (some centres undefined)	-0.9	0.693	i	/	-22.6*	-9.2*	-2.5*	/	/	5.7
COc1ccccc1NC(=O)c1cc(N)cc(C(=O)Nc2ccccc2OC)c1	3.3	0.645	i	7.3	/	/	/	-7.1	0.0	3.0

Screening data deposited in PubChem by several laboratories.
